Screening data (PubChem BioAssay)
PABP polyA inh: PABP-poly(A) binding inhibition; 290,000 compounds, 1% hits; inhibition, % at 35 µM; PABP-poly(A) RNA binding, fluorescence polarization;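 active = 50% or more with normal probe brightness, or confirmed in later tests; inconclusive = above 50% with abnormal brightness, or retests that disagree; inactive = below 50% or failed in later tests; about a fifth of its hits are not listed in these tables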;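 note: calls also rest on retests at 20 µM and on dose response follow-up; controls were probe without protein and protein plus probe with vehicle; some compounds called inactive have numbers as strong as hits; many hits fall short of the cut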
Target sequence (P11940 whole entry, looked up): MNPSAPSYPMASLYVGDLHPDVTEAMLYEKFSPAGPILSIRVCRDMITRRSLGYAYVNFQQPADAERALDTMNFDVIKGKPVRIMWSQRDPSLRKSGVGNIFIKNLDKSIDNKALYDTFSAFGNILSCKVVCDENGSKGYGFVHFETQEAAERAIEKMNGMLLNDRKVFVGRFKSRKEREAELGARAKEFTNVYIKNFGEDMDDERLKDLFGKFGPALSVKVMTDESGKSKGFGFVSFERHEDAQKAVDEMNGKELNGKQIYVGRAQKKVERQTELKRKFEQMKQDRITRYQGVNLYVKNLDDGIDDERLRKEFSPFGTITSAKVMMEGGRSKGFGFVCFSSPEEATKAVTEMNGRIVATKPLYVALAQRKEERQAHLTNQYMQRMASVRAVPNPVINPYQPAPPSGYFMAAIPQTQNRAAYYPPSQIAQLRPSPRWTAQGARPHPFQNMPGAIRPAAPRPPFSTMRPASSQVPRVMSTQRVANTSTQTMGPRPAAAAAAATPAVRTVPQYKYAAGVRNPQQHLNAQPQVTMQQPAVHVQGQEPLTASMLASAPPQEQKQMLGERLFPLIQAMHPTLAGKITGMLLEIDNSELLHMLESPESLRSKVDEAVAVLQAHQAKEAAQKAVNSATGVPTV
Yeast UUG start: yeast start codon fidelity modulation. S. cerevisiae UUG-firefly luciferase reporter, luminescence/redox ratio. activity score, % at 18.7 µM. 350,000 compounds, 0.13% hits. AID 602363;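 active = replicate mean at a twofold rise or more, about +100% in these data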;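 note: firefly luciferase made from a UUG start codon reports start codon fidelity; reporter light over untreated wells divided by growth signal over untreated wells; some hits fall short of that in this replicate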
eIF4H inh: inhibitors of RNA binding by human eIF4H; Q15056; eIF4H fluorescence polarization binding assay; inhibition, % at 35 µM; 290,000 compounds, 0.94% hits;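 active = 50% or more with normal probe brightness, or confirmed in later tests; inconclusive = above 50% with abnormal brightness, or retests that disagree; inactive = below 50% or failed in later tests; about a fifth of its hits are not listed in these tables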;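 note: calls also rest on retests at 20 µM and on dose response follow-up; 0% = protein and probe with vehicle and 100% = probe without protein; strong numbers were not always called active; many hits fall short of the cut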
MT1-MMP act inh: MT1-MMP (human) activation inhibition | HT1080 RFP-PRO-GFP cells, GFP/RFP ratio fluorescence, overnight; percent of plate control window, DMSO zero | P50281 | GFP/RFP ratio change, % at 20 µM | AID 651647 | 360,000 compounds, 0.061% hits;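 active = GFP/RFP ratio change of at least 30% with cell ATP level not reduced by more than half and red fluorescence within 50% of control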; note: strong numbers were not always called active
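Read-out: GFP/RFP fluorescence ratio; Test system: RFP-PRO-GFP reporter HT1080 cells; Compound dosing: single-point 20 µM compound, 1% DMSO; Times: overnight compound exposure at 37 °C.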
Env fusion inh: HIV envelope-mediated fusion inhibition; inhibition, % at 12.3 µM; 360,000 compounds, 1.1% hits; HeLa-JRFL Env/CEM21 cell fusion, luciferase;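 active = mean replicate inhibition score of at least 50 and every replicate individually at or above 50; inconclusive = only one of the two criteria met; inactive = mean below 50 and not all replicates reaching 50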;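 note: 0% = plate neutral controls and 100% = maraviroc near 300 nM; one replicate is shown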
Rce1 inh: yeast Ras-converting enzyme inhibition. Q03530. yeast membranes, quenched prenylated peptide cleavage fluorescence. calls only. 290,000 compounds, 0.27% hits. AID 2563;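 active = fall in fluorescence gain of 50% or more versus controls, with final raw signal at or below 3038400; inconclusive = same 50% fall but final raw signal above 3038400; inactive = fall in fluorescence gain under 50%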;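 note: plate controls were neutral control wells for no effect and wells lacking membranes for full effect; tested at 10 µM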
Target sequence (Q03530 whole entry, looked up): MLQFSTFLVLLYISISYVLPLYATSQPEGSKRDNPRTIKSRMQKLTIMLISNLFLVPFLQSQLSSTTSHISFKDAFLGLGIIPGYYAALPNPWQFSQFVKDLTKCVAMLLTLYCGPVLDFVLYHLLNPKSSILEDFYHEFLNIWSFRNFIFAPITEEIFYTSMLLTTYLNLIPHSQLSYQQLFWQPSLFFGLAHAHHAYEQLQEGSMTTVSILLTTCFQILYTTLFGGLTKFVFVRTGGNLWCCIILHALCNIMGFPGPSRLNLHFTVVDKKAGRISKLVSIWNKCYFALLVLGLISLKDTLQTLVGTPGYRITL
CSC inhib: blocks cancer stem cells. inhibition, % at 7.5 µM. cancer stem cell-like cells viability, luminescence. 300,000 compounds, 1.1% hits;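 active = mean at 75% or more and at least half the replicates too; inconclusive = mean and replicates disagree; tested in HMLE shEcad cells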;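 note: 0% = median of negative and 100% = median of positive control wells; the first replicate is given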
eIF4H inh retest: also measured in eIF4H inh; calls as there; inhibition, %; compound at 20 µM; confirmation average;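 mean of two retest wells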
PABP polyA inh retest: further read-out of PABP polyA inh, marked with its call; inhibition, %; compound at 20 µM; confirmation repeats;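 mean of two retest wells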
MT1-MMP act inh RFP: further read-out of MT1-MMP act inh, marked with its call; RFP signal change, %; measured here: RFP expression control read;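 0 = vehicle wells; hits needed this value within 50% of zero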
Active calls of the source: *; i = inactive; ? = inconclusive; . = not tested or not shown; & = joins results of further samples.

SMILES	PABP polyA inh	Yeast UUG start	eIF4H inh	MT1-MMP act inh	MT1-MMP act inh RFP	Env fusion inh	Rce1 inh	CSC inhib	others
Cc1ccc(S(=O)(=O)N(C)C)cc1NC(=O)CN1CCCC1	6.3	.	-13.3	0.2	1.4	-4.5	i	-3.3
O=C(CSc1nnc(Cc2cc(=O)[nH]c(=O)[nH]2)n1-c1ccccc1)N1CCCC1	2.1	.	4.7	-3.1	1.3	-28.0	i	-12.5
C[C@]12CC[C@H](O)CC1=CCC1C2CC[C@@]2(C)C1CC[C@@H]2NCc1ccccc1 (stereo not given in full)	.	-17.6	.	-1.8	-3.6	-0.4	.	.
O=C(Nc1ccncc1)c1ccc(Cl)c(Cl)c1	0.5	-17.3	11.9	4.9	-10.3	-1.9	i	-9.5
Cc1[nH]c2ccccc2c1-c1csc(NC(=O)CN2CCOCC2)n1	-9.5	-10.2	-3.6	-0.7	4.8	17.1	i	20.0
O=C(NC12CC3CC(CC(C3)C1)C2)c1ccc(-c2ccc(Cl)cc2)o1	2.8	.	-4.0	7.8	-1.2	.	i	13.0
O=C(NCC(c1cccnc1)N1CCN(c2ccccc2F)CC1)OCc1ccccc1 (stereo not given)	-1.9	-14.4	5.8	-6.5	-15.9	.	i	20.0
CN(Cc1cccs1)C(=O)Cn1cnc2cc([N+](=O)[O-])ccc2c1=O	1.6	.	13.0	-3.1	-2.1	-1.6	i	-10.7
N=C1S/C(=C\c2ccccc2F)C(=O)N1c1ccc(F)cc1	-3.4	.	-7.8	-0.2	-1.8	4.4	i	-1.7
Cc1ccccc1Cc1n[nH]c(=S)n1N	9.2	-17.9	5.9	0.3	3.6	-10.2	i	-7.7
Cc1ccc(-n2[nH]c(C)c(/C=N/c3ccccn3)c2=O)cc1	12.6	-17.6	-8.5	4.6	3.6	-15.3	i	34.1
O=C(N/N=C/c1ccc(Cl)cc1)c1nc2ccc([N+](=O)[O-])cc2c(=O)[nH]1	-2.8	.	28.6	0.5	2.9	9.9	i	-5.2
COC(=O)c1cc(NC(=O)C2(S(=O)(=O)c3ccc(Cl)cc3)CC2)cc(C(=O)OC)c1	3.8	2.5	-9.9	-0.6	0.5	9.2	i	6.2
O=C(O)c1ccc(COc2ccc3ccccc3c2)o1	9.0	-40.3	-3.6	-3.5	-0.9	-59.7	i	-1.3
O=C(CSc1nc2ccccc2c(=O)n1NC(=O)Cc1ccccc1)NCCc1ccccc1	-3.5	-7.9	-11.2	-0.7	-8.8	-9.6	i	-7.7
COc1ccc(NC(=O)c2nn(C)c3c2CS(=O)(=O)c2ccccc2-3)cc1	-3.9	-8.4	-0.4	0.9	3.6	6.7	i	-1.6
COc1ccc(N/C=C/C(=O)C(F)(F)F)cc1	4.4	-20.0	-9.1	2.7	3.9	26.6	i	8.6
C[C@@H]1CN([C@@H](C)CO)C(=O)CCCn2nncc2CO[C@H]1CN(C)Cc1cccnc1	.	-6.8&-2.2	.	0.3	0.8	13.9	.	.
CN(C)c1ccc(NC(=O)CN2CCC(C(=O)c3ccc(F)cc3)CC2)cc1	-6.2	-4.1	6.4	-0.7	-0.1	.	i	-2.0
Cc1ccc(S(=O)(=O)N2CCN(C(=O)CN3CCc4ccccc4C3)CC2)cc1	34.5	24.5	-2.7	-5.2	-4.3	14.8	i	10.2
Cc1ccc(S(=O)(=O)c2nc(C)oc2N2CCOCC2)cc1	-6.3	-16.3	-4.8	2.8	-0.5	3.3	i	5.9
COc1ccc(CC(=O)N2CCC(CCC(=O)Nc3ccccc3)CC2)cc1	-0.3	5.0	0.1	-0.6	-1.1	-3.0	i	6.3
O=C(Cc1cccs1)Nc1nnc(SCc2ccc(C(F)(F)F)cc2)s1	-14.8	-19.8	2.5	1.8	0.1	5.5	i	-2.0
COc1cc(/C=C/C(=O)N(Cc2ccccc2)c2ccccn2)cc(OC)c1OC	2.5	.	-12.2	-0.1	-0.2	9.9	i	4.9
Cc1cccc(-n2c(-c3cccc([N+](=O)[O-])c3)nc3nc4ccccc4nc32)c1	9.6	.	2.7	.	.	.	i	-0.7
COc1ccccc1Oc1ccc(S(=O)(=O)N2CCCCC2)cc1NC(=O)CCNC(C)=O	8.4	-11.0	-2.7	0.7	2.8	-165.4	i	-4.0
O=C(COC(=O)C1(c2ccc(Cl)cc2)CCCC1)NCc1ccco1	5.2	12.8	3.3	-0.8	-8.0	7.6	i	2.2
CC(=O)C1=C(c2ccccc2)NC(=O)NC1c1ccccc1 (stereo not given)	-1.3	-2.6	-0.9	2.4	7.3	7.6	.	-9.9
CC(=Nc1ccc(C)cc1C)c1sc2ccccc2c1O	1.4	.	75.5	-71.6	-7.3	-321.8	i	4.7	eIF4H inh retest=-7.5;PABP polyA inh retest=7.0
CC12C(=O)N(c3nccs3)C(=O)C1C1C=CC2C1 (stereo not given)	0.5	.	36.3	-3.6	1.3	-7.8	i	-5.1
CC(C)(C)n1ncc2c(=O)n(CC(=O)NCc3ccc(F)cc3)cnc21	1.4	.	-3.4	-2.0	-9.7	.	i	41.6
CC(C)Oc1ccccc1C1CC(=O)Nc2cc3c(cc21)OCO3 (stereo not given)	-14.5	-3.2	40.8	9.9	-7.7	-4.2	.	53.5
Cc1ccc(Cl)cc1NC(=S)N1CCCCCC1	2.3	-25.8	6.7	4.9	2.2	.	i	-7.5
Cc1ccc2cc(CN(C(=O)c3cccnc3)C(C)C)c(=O)[nH]c2c1	32.5	5.2	10.9	-6.1	1.4	-40.7	i	-0.9
CC1(C)Cc2c(ccc3ccccc23)C(c2cc3ccccc3oc2=O)=N1	-4.8	-0.9	-10.9	5.6	-0.8	21.9	i	43.0
COc1cc(NC(=O)NC2Cc3ccccc3C2)cc(OC)c1	-4.9	-4.5	-2.8	-0.6	2.4	-3.4	i	4.1
COCCN(CCOC)C(=S)Nc1ccccc1	4.8	.	-0.1	-1.6	-2.9	-11.9	i	-12.1
CC1(C)C(=O)OC(c2cccn2-c2ccc([N+](=O)[O-])cc2)C2(CCCCC2)C1=O (stereo not given)	-12.4	.	-0.8	5.7	5.7	23.0	i	3.3
CN(C(=S)NCCN1CCOCC1)C(c1ccccc1)c1ccccc1	-2.8	.	-4.2	-11.1	-8.1	5.3	i	10.4
Cc1cc(C(=O)OCC(=O)Nc2ccccc2)c(C)o1	-4.2	.	-3.2	2.2	0.3	8.6	i	-6.2
Cc1cccc(C)c1OCc1cc(C(=O)N(C)CCc2ccccn2)no1	3.0	-10.4	-22.2	-2.5	0.2	4.3	i	4.4
N#Cc1ccccc1COC(=O)c1cccnc1N	7.5	.	22.7	-4.1	-3.9	15.6	i	2.1
COc1ccc(-n2c(=O)c3ccccc3n(CC(=O)NC3CCCCC3)c2=O)cc1	4.5	-16.6	8.9	4.3	-1.8	-66.9	.	-4.6
C[C@@H]1CC[C@H]2C(=O)N3[C@@H](CC[C@@H](C)[C@@H]3c3ccc(Br)cc3)C(=O)N2[C@H]1c1ccc(Br)cc1	-5.5	-5.3	1.5	-2.5	-1.7	77.3*	i	78.7*
CCOCCCNC(=O)/C=C1\Sc2ccccc2N(Cc2ccccc2F)C1=O	-2.2	15.1	-5.8	4.8	0.0	7.5	i	4.1
O=C(COC(=O)c1ccc(Br)o1)Nc1nc2ccccc2s1	1.3	-41.6	0.0	0.3	2.9	-4.9	i	-12.6
COc1ccc(C(C)=O)cc1COC(=O)c1ccc2c(c1)OCO2	-6.8	-7.2	1.3	-7.4	-0.3	-99.7	i	-13.9
O=Cc1c(NCc2cccc(F)c2)c2ccccc2[nH]c1=O	-1.0	-10.7	-4.5	1.3	-2.8	0.1	i	-18.4
Cc1ccc(N(C(=O)CNC(=O)c2ccco2)C(C(=O)NC2CCCCC2)c2ccncc2)c(C)c1 (stereo not given)	3.5	-1.4	-5.4	-3.1	0.5	-0.1	i	.
C=CCn1cc(/C=C2\SC(N3CCOCC3)=NC2=O)c2ccccc21	3.7	9.4	-3.4	2.1	-0.1	-5.9	i	-11.4
NC(=O)C[n+]1cccc2ccccc21	?	-23.5	?	-34.5	2.0	.	i	-0.5
O=C(O)C(Cc1c[nH]c2ccccc12)NS(=O)(=O)c1cccc(Cl)c1Cl (stereo not given)	7.6	-9.1	8.4	-1.5	6.2	6.6	i	-16.5
N#CC(C#N)=C1c2cc(S(=O)(=O)NCCO)ccc2-c2ccc(S(=O)(=O)NCCO)cc21	100.1	-24.8	88.2	-12.6	-6.2	7.3	i	-10.8	eIF4H inh retest=8.1;PABP polyA inh retest=21.3
O=C(Nc1ccc2c(c1)OCO2)C1CC(c2ccc(Cl)cc2)=NO1 (stereo not given)	-3.4	-5.2	-5.8	11.2	2.1	.	i	.
CCCc1cc(-n2ccnc2C)n2c(nc3ccccc32)c1C#N	.	-9.9	.	1.2	4.5	7.6	.	7.7
CNC(=O)C1CCN(S(=O)(=O)c2c(C)noc2/C=C/c2ccccc2F)CC1	3.5	2.1	-11.8	-2.6	-1.1	-31.7	i	4.3
O=C(NNC(=O)c1ccco1)c1csc(N2CCOCC2)n1	.	21.9	.	5.4	1.0	-7.0	i	-15.4
O=C(NC1CC2CCCC(C1)N2CC(=O)N1CCCc2ccccc21)C1CCCCC1 (stereo not given)	-2.4	-4.3	-2.8	1.3	1.8	-24.8	i	3.6
CCCNC(=O)c1ccccc1NC(=O)c1cccc(-n2cnnn2)c1	.	-14.6	.	3.5	-0.4	-6.0	.	.
Cc1onc(-c2ccccc2Cl)c1C(=O)Nc1ccc(Br)cc1	-15.7	-15.8	4.0	-1.6	2.4	9.8	i	.

(next part)
SMILES	PABP polyA inh	Yeast UUG start	eIF4H inh	MT1-MMP act inh	MT1-MMP act inh RFP	Env fusion inh	Rce1 inh	CSC inhib	others
O=S(=O)(c1ccc2c(c1)OCCO2)N1CCC(c2nc3ccc(Cl)cc3[nH]2)CC1	7.8	-1.5	2.4	8.4	-14.5	55.2*	i	15.1
Cc1ccc(NC(=S)NCc2ccc(S(N)(=O)=O)cc2)c(C)c1	-10.3	.	-4.7	3.2	4.3	-38.1	i	-10.1
S=c1[nH]nc(C2COc3ccccc3O2)o1 (stereo not given)	21.5	-1.7	-8.5	0.4	3.3	.	i	.
Cc1c(C(=O)O)cccc1-c1ccc(/C=C2/NC(=O)N(c3ccccc3)C2=O)o1	10.7	.	9.2	-1.8	-1.4	4.7	i	4.5
COc1ccc(OC)c(Nc2cc(C)c3ccccc3n2)c1	-0.4	0.1	9.0	-1.1	-0.8	-22.8	i	18.4
COc1ccc(CC(=O)NC(C)c2nnc(SCc3nc4ccccc4c(=O)[nH]3)n2C)cc1 (stereo not given)	-6.8	-6.1	0.2	1.2	1.3	.	i	11.6
COc1ccc(NCc2cc(=O)oc3cc(NC(C)=O)ccc23)cc1	4.8	-11.3	3.8	1.9	4.4	-0.8	i	16.8

2 consecutive records already listed, for reference:
SMILES	PABP polyA inh	Yeast UUG start	eIF4H inh	MT1-MMP act inh	MT1-MMP act inh RFP	Env fusion inh	Rce1 inh	CSC inhib	others
COc1ccc(CC(=O)NC(C)c2nnc(SCc3nc4ccccc4c(=O)[nH]3)n2C)cc1 (stereo not given)	-6.8	-6.1	0.2	1.2	1.3	.	i	11.6
COc1ccc(NCc2cc(=O)oc3cc(NC(C)=O)ccc23)cc1	4.8	-11.3	3.8	1.9	4.4	-0.8	i	16.8
